Assay outcomes from PubChem BioAssay.
H5N1 CPE – MDCK cell protection from H5N1 avian flu; inhibition, % at 50 µM; 0.07% of 96,000 active; cytopathic effect, luminescence, 72 h; hits give high values; no value below 0 was filed and about half of the inactive calls have no number; reference of the scale not given here; AID 740, 2007; in the data active = inhibition above about 25%
Numbers without * were called inactive; i = inactive.

SMILES	H5N1 CPE
CC(C)=C1C2CCC1C1C(=O)N(NC(=O)COc3ccc(C(C)(C)C)cc3)C(=O)C21 (stereo unspecified)	i
Cn1c(=O)c(=O)n(C)c2cc(S(=O)(=O)N3CCN(Cc4ccccc4)CC3)ccc21	i
CC1(C)NC(=O)NC2(C)NC(=O)NC(C)(C)C12 (stereo unspecified)	i
CCC(CC)C(=O)Nc1cccc(S(=O)(=O)c2cccc(NC(=O)C(CC)CC)c2)c1	i
CN1CCN(C(=O)CN2C(=O)CC(C)(C)S(=O)(=O)c3ccccc32)CC1	0.1
CC(=O)Nc1ccc(C(=O)n2cnc3cc(C)c(C)cc32)cc1	1.3
COc1ccc(NC(=O)c2ccc(=O)oc2)cc1	i
CC(=O)Nn1cnc2c(c1=O)C1(CCCC1)Cc1ccccc1-2	0.0
O=c1nc2sc3ccccc3n2c(=O)n1-c1cccc(Cl)c1	i
CCOC(=O)c1c(N)sc2c1CCSC2	i
COc1ccc(NC(=S)NC(NC(=O)c2ccc(Cl)cc2Cl)C(Cl)(Cl)Cl)c([N+](=O)[O-])c1 (stereo unspecified)	i
CC(C)Cc1nc(N2CCC(C(N)=O)CC2)c2nnn(Cc3ccccc3)c2n1	0.1
CCOC(=O)c1sc2nc(NC(=O)COc3ccccc3)sc2c1C	i
O=C1C2CCCN2C(c2cccc(Br)c2)N1c1ccc(F)cc1 (stereo unspecified)	i
CCOC(=O)N1CCN(c2c(-c3ccc(C(C)C)cc3)c(=O)c2=O)CC1	2.4
CCS(=O)(=O)c1ccc2c(c1)N(S(C)(=O)=O)CC(C(=O)NC1CC1)O2 (stereo unspecified)	i
COC(=O)c1[nH]c2cccc(OC)c2c1NC(=O)CN1CC(C)OC(C)C1 (stereo unspecified)	0.8
CN1CCN(S(=O)(=O)c2cc([N+](=O)[O-])ccc2N2CCCCCC2)CC1	i
COC(=O)c1ccc(Cl)c(-c2ccc(/C=N/NC(=O)Nc3ccccc3)o2)c1	i
CCCOc1ccc(/C=N/NC(=O)c2ccc(Cn3cc([N+](=O)[O-])cn3)o2)cc1	0.6

By substructure, those above containing a thiophene ring, fused or not.
SMILES	H5N1 CPE
CCOC(=O)c1c(N)sc2c1CCSC2	i
CCOC(=O)c1sc2nc(NC(=O)COc3ccccc3)sc2c1C	i

Remaining list, next part
SMILES	H5N1 CPE
N#Cc1nc(COc2ccc(Br)cc2)oc1N1CCN(Cc2ccccc2)CC1	i
O=C(CC1NC(=O)NC1=O)Nc1cccc2ccccc12 (stereo unspecified)	0.3
CCc1nc(SCc2ccccn2)c2c(=O)n(C)c(=O)n(C)c2n1	4.9
Cc1nc(SCc2ccc(Br)cc2)[nH]c(=O)c1C	0.5
Cc1ccc2oc(-c3cccc(NC(=O)C4CCCO4)c3)nc2c1 (stereo unspecified)	i
C/C(=C(\C#N)C(=O)NC1CCCCC1)N(C)C	i
CCCN(CCC)C(=O)c1c(C)[nH]c(C(=O)OCC)c1C	0.7
Clc1nnc2ccc(-c3ccccc3)nn12	2.0
Clc1cccc(NCc2nnc(SCc3ccccc3Cl)o2)c1	0.1
Cc1[nH]c(=O)c(C#N)cc1-c1ccccc1	0.3
Cc1ccc(-c2nn3c(C)nnc3s2)cc1NC(=O)COc1ccc(Cl)cc1	i
CCOC(=O)C1CCN(C(=O)Cc2c(F)cccc2Cl)CC1	i
Cc1cc(N2CCCCC2)nc2ccc(NC(=O)c3ccc(Br)o3)cc12	i
CC(C)NCC(=O)NC12CC3CC(CC(C3)C1)C2	i
COc1cccc(CN2C(=O)C3CCCN3c3ccc(S(=O)(=O)N4CCOCC4)cc32)c1 (stereo unspecified)	3.0
CCOC(=O)C1CCN(S(=O)(=O)c2cccc(-c3csc(C)n3)c2)CC1	0.6
COc1ccc(N2CCN(C(=O)C3CCN(S(=O)(=O)N4CCOCC4)CC3)CC2)cc1	i
O=C(O)CC(NC(=O)C(c1ccccc1)c1ccccc1)c1ccco1 (stereo unspecified)	i
CCCCCn1c(=O)c(-c2nc3ccccc3c(=O)[nH]2)c(O)c2ccccc21	i
CC(C)NC(=O)c1ccc2c(c1)S(=O)(=O)c1ccccc1C2=O	i
Oc1c(C(c2cccs2)N2CCC3(CC2)OCCO3)sc2ncnn12 (stereo unspecified)	i
CCc1cccc(NC(=O)CN(C)S(=O)(=O)c2cnc[nH]2)c1	i
O=C(Nc1ccccc1C(=O)NCc1ccco1)c1ccccc1	1.6
Cc1ccc(NS(=O)(=O)c2cc(C(=O)N3CCc4ccccc4C3)ccc2Cl)cc1	0.9
CCOc1cc(C(c2c(C)[nH][nH]c2=O)c2c(C)[nH][nH]c2=O)ccc1OS(=O)(=O)c1ccc(C)cc1	0.1
COc1ccc(C(c2nnnn2Cc2ccccc2)N2CCN(c3nc4ccccc4s3)CC2)cc1 (stereo unspecified)	i
OC(COCc1ccc2c(c1)OCO2)CN1CCN(Cc2ccccc2)CC1 (stereo unspecified)	i
CCC1(CC)Cc2ccccc2C(Nc2c(C)n(C)n(-c3ccccc3)c2=O)=N1	i
Cn1c(=O)c(Oc2cc(Cl)cc(Cl)c2)nc2ccccc21	i
c1ccc(CCN2CN(CCCN3CCOCC3)c3nc4ccccc4n3C2)cc1	i
CCOc1cccc(N2C(=O)CC(N3CCN(c4ccc(S(=O)(=O)CC)cc4)CC3)C2=O)c1 (stereo unspecified)	i
CCn1c2ccccc2c2cc(/C(C)=N/O)ccc21	0.2
CC(C)(C)c1ccc(O)c(/C=N\O)c1	i
CC(=O)NC(Cc1ccccc1)C(=O)N1CCN(C(=O)c2cccs2)CC1 (stereo unspecified)	1.4
CCOc1ccc2[nH]c(=O)c(CN(CC3COCCO3)C(=O)C3CC3)cc2c1 (stereo unspecified)	0.3
O=C(Nc1ccc2nc(-c3ccc4nc[nH]c4c3)[nH]c2c1)c1cccs1	i
O=C(NCc1nc2ccccc2[nH]1)c1cccc(S(=O)(=O)N2CCCC2)c1	0.7
CC(C)(C)C(=O)C(CO)(Oc1ccc(Cl)cc1)n1cncn1 (stereo unspecified)	7.3
CCOC(=O)c1ccc(NC(=O)COc2ccccc2OC)cc1	0.1
Cc1ccc(NC(=O)Cn2cc3c(n2)CCC(C)C3)cc1 (stereo unspecified)	0.2

At a glance, part of the list above:
SMILES	H5N1 CPE
O=C(NCc1nc2ccccc2[nH]1)c1cccc(S(=O)(=O)N2CCCC2)c1	0.7
CC(C)(C)C(=O)C(CO)(Oc1ccc(Cl)cc1)n1cncn1 (stereo unspecified)	7.3
CCOC(=O)c1ccc(NC(=O)COc2ccccc2OC)cc1	0.1
Cc1ccc(NC(=O)Cn2cc3c(n2)CCC(C)C3)cc1 (stereo unspecified)	0.2

(listing goes on)
SMILES	H5N1 CPE
CC(C)NC(=O)c1ccccc1S(=O)(=O)c1ccccc1C#N	i
COc1cc(C2NC(=O)c3ccccc3O2)cc(OC)c1OC (stereo unspecified)	i
Cc1ccc(NC(=O)Cc2nnc(SCC(=O)c3ccc(Br)cc3)n2C)cc1Cl	0.9
Nc1nc(-c2ccc(Cl)cc2)cn1N	i
CCSc1nc2c(c(=O)[nH]c(=O)n2C)n1CC(O)COc1ccccc1C (stereo unspecified)	1.6
COC(=O)CN(c1ccc(OC)c(OC)c1)S(C)(=O)=O	i
CN1CCCN(Cc2ccccc2C(F)(F)F)CC1	i
Cc1snc(S(=O)(=O)Cc2ccccc2Cl)c1C#N	3.5
COc1ccc2c(c1)CCc1c-2n[nH]c1C(=O)O	i
Cc1nc(-c2ccccc2)sc1C(N)=O	i
Cn1cccc1Cc1nnc(SCC(=O)N2CCOCC2)n1-c1ccc(F)cc1	1.1
CN(C(=O)c1ccccc1NC(=O)C(F)(F)F)c1ccccc1	i
COc1ccccc1Nc1nc2ccc(C)cc2cc1C#N	1.9
O=C(NCC1COc2ccccc2O1)Nc1ccccc1F (stereo unspecified)	i

5 structures out of the list, arranged by heavy-atom count, ascending:
SMILES	H5N1 CPE
Nc1nc(-c2ccc(Cl)cc2)cn1N	i
Cc1nc(-c2ccccc2)sc1C(N)=O	i
Cc1snc(S(=O)(=O)Cc2ccccc2Cl)c1C#N	3.5
CN(C(=O)c1ccccc1NC(=O)C(F)(F)F)c1ccccc1	i
Cn1cccc1Cc1nnc(SCC(=O)N2CCOCC2)n1-c1ccc(F)cc1	1.1

Some values from the list.
H5N1 CPE with Cn1cccc1Cc1nnc(SCC(=O)N2CCOCC2)n1-c1ccc(F)cc1 = 1.1
H5N1 CPE with Cc1ccc(NC(=O)Cc2nnc(SCC(=O)c3ccc(Br)cc3)n2C)cc1Cl = 0.9
H5N1 CPE with Cc1snc(S(=O)(=O)Cc2ccccc2Cl)c1C#N = 3.5

A portion of the library; the hit share may differ from the screen's.
